Hedgehog cleavage – Hh protein inhibition, biochemical readout – plate reader, single concentration, primary screen (AID 588832); Biochemical plate reader assay, Hedgehog inhibition; stronger effect = higher value; 8,000 tested, under 10 active; inhibition, % at 30.3 µM; in the data active means inhibition from about 57%;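 further: 0% = neutral control wells and 100% = positive control wells; cholesterol-driven self-cleavage of fly hedgehog protein by fluorescence polarization; read one hour after cholesterol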
The depositor's hits bear a star. Some of the compounds tested; count on the stated rates, not on these rows.

SMILES | Hedgehog cleavage
Cc1coc2c(C)c3oc(=O)c(CCC(=O)NCCCn4ccnc4)c(C)c3cc12 | 5.1
O=C(c1ccccc1)c1ccc(O)c(O)c1O | 16.2
O=C(Nc1nc2c(Cl)ccc(Cl)c2s1)c1ccco1 | -4.5
COc1ccc(NC(=O)CSc2nc3ccccc3nc2N2CCCC2)cc1Cl | 7.3
COC(=O)C(C)n1cnc2c(nnn2-c2cccc(Cl)c2)c1=O (configuration not stated) | 0.0
COc1ccc(-c2cn(-c3ccc(C)cc3C)c(=O)[nH]2)cc1OC | 3.6
CCOC(=O)C1=C(C)Nc2nc(C)nn2C1c1cc(OC)ccc1OC (configuration not stated) | 8.3
Cc1c(C(=O)N(Cc2ccccc2Cl)C2CCS(=O)(=O)C2)oc2ccccc12 (configuration not stated) | 5.3
COC(=O)CCSCC(=O)Nc1nnc(C)s1 | 5.5
CC(=O)O[C@H]1C[C@@]2(O)[C@@H](OC(=O)c3ccccc3)C3[C@@](C)([C@@H](O)C[C@H]4OC[C@@]34OC(C)=O)[C@@H](O)[C@H](OC(C)=O)C(=C1C)C2(C)C (some centres not stated) | 0.0
CCOC(=O)N1CCC(N2Cc3cccc(C(=O)NCc4ccccn4)c3C2=O)CC1 | -0.9
C=C(C)COc1cc2oc(=O)c(CC(=O)N3C[C@H]4C[C@@H](C3)c3cccc(=O)n3C4)c(C)c2cc1Cl | 1.7
COc1ccc(C(=O)NCCn2ccc3ccccc32)cc1OC | 8.9
COc1ccc(N(CC(=O)NCc2cccnc2)S(=O)(=O)c2c(C)nn(C)c2C)cc1 | 3.5
CCOC(=O)N1CCC(N2C(=O)c3ccccc3C2Nc2ccccc2C)CC1 (configuration not stated) | 0.0
CCOc1ccccc1NC(=O)CN1C(=O)COc2ccc(Cl)cc21 | 0.0
CCc1ccc(NC(=O)C2CCCN2S(=O)(=O)c2ccc3c(c2)C(C)(C)C(=O)N3C)cc1 (configuration not stated) | 24.5
Cc1ccc(NS(=O)(=O)c2cn(C)c(=O)n(C)c2=O)cc1C | 5.8
O=C(O)C1C2C=CC3(CN(C4CCCC4)C(=O)C13)O2 (configuration not stated) | 20.8
CCOc1ccc(C(=O)c2cnc3ccccc3c2N2CCN(CC)CC2)cc1 | 20.0
Cn1cccc1Cc1nnc(SCC(N)=O)n1-c1ccc(F)cc1 | 21.6
O=S(=O)(c1ccc(F)cc1)N1CCC(N2CCCC2)CC1 | 14.5
CC(=O)OC/C=C(\C)CCC=C(C)C | 8.6
Cn1c(=O)[nH]c(=O)c2c1nc(N1CCCCCC1)n2CCSc1nc2ccccc2o1 | 1.9
Cc1ccc(-c2nc(CSCC(=O)N3CCN(c4ccccn4)CC3)c(C)o2)cc1 | 16.7
CC(=O)c1cccc(NC(=O)CN2CCc3cc4c(cc3C2)OCCCO4)c1 | 7.2
CCCCOC(=O)c1[nH]c2c(c1C)C(=O)CC(c1cc(OC)c(OC)c(OC)c1)C2 (configuration not stated) | 16.7
CC1CN(C(=O)CCC(=O)NCc2ccccc2Cl)c2ccccc2S1 (configuration not stated) | 5.0
COc1cccc(OC)c1C(=O)Nc1sc2c(c1C(N)=O)CCN(Cc1ccccc1)C2 | 2.7
COc1cccc(C2CC(c3cccc(Br)c3)n3nc(N)nc3N2)c1 (configuration not stated) | 8.3
CCC(Sc1nc2ncccc2[nH]1)C(=O)N1CCOCC1 (configuration not stated) | 1.9
CSCC[C@H](NS(=O)(=O)c1ccc(C)cc1)C(=O)N1CCC(C(=O)N[C@H](C(=O)O)c2ccccc2)CC1 | 1.8
c1cnc2c(C3NCCc4c3[nH]c3ccccc43)cccc2c1 (configuration not stated) | 3.4
COc1ccc(-c2cn3c(C)c(C(=O)N4CCc5ccccc5C4)sc3n2)cc1 | 9.7
CCCNC(=O)C1CCN(S(=O)(=O)c2c(C)noc2/C=C\c2ccc(OC)cc2)CC1 | 9.5
O=C(O)C1CCCCC1C(=O)NCc1cn2ccccc2n1 (configuration not stated) | 1.8
CCC1CCCCN1C(=O)CSc1nc2c(cnn2-c2ccc(C)cc2)c(=O)[nH]1 (configuration not stated) | 0.0
COc1ccc(-c2nc(CSCC(=O)NCc3ccc4c(c3)OCO4)c(C)o2)cc1OC | 4.6
COC(=O)c1ccc(NS(=O)(=O)c2ccc3c(c2)oc(=O)n3C)cc1 | 16.7
O=C(Nc1ccc(F)cc1F)N1CCN(c2ncccn2)CC1 | 10.5
CCCc1cc(=O)oc2cc(OCC(=O)N3CC[C@@]4(O)CCCC[C@H]4C3)ccc12 | 3.4
COc1ccccc1NC(=O)CSc1nnc(-c2ccccc2)o1 | 10.0
COc1nc(NCC(C)C)nc(Oc2ccc(=O)n(-c3ccccc3)n2)n1 | 1.9
Cc1cc2cc(CNC(=O)c3ccc(Br)o3)ccc2[nH]1 | 1.8
Cn1c(Cn2c(=O)sc3ccccc32)nnc1SCc1cccnc1 | 24.3

Part of the list above in a different format:
Hedgehog cleavage	SMILES
2.7	COc1cccc(OC)c1C(=O)Nc1sc2c(c1C(N)=O)CCN(Cc1ccccc1)C2
8.3	COc1cccc(C2CC(c3cccc(Br)c3)n3nc(N)nc3N2)c1 (configuration not stated)
1.9	CCC(Sc1nc2ncccc2[nH]1)C(=O)N1CCOCC1 (configuration not stated)
1.8	CSCC[C@H](NS(=O)(=O)c1ccc(C)cc1)C(=O)N1CCC(C(=O)N[C@H](C(=O)O)c2ccccc2)CC1
3.4	c1cnc2c(C3NCCc4c3[nH]c3ccccc43)cccc2c1 (configuration not stated)
9.7	COc1ccc(-c2cn3c(C)c(C(=O)N4CCc5ccccc5C4)sc3n2)cc1

Next section.
SMILES | Hedgehog cleavage
Brc1cccc(-c2nnc(SCc3ccon3)n2-c2ccccc2)c1 | 5.0
Cc1c(S(=O)(=O)Nc2ccc(Br)cc2)c(=O)n(C)c(=O)n1C | 5.8
O=C(Cn1ncc2c1-c1ccccc1OC2)Nc1cccc(Cl)c1 | 6.8
CCOC(=O)N1CCC(N2C(=O)c3ccc(C(=O)NCc4ccc(F)cc4)cc3C2=O)CC1 | 8.7
CCOC(=O)N1CCN(C(=O)C2CC(c3ccc(F)cc3)=NO2)CC1 (configuration not stated) | 0.0
COc1ccc(OC)c2c1sc(=NC(=O)C(C)C)n2C | 5.2
O=C(O)COc1ccc(S(=O)(=O)NCCc2ccccc2)cc1 | 0.0
O=C(CCC(=O)N1CCOc2ccc(Cl)cc21)NCc1ccccc1 | 5.1
O=C(Nc1cccc(-c2nc3cccnc3s2)c1)C1c2ccccc2Oc2ccccc21 | 10.9
COc1ccc2c3c1OC1CC(O)C=CC31CCN(C)C2 (configuration not stated) | 7.2
O=C(NCc1ccco1)C1CCCN(S(=O)(=O)c2cccc3cccnc23)C1 (configuration not stated) | 20.0
O=C(CN1CCOc2ccccc21)N1CCC(Cc2ccccc2)CC1 | 14.9
Cc1nnc(NC(=O)CSc2nccn2-c2cccc(C)c2C)s1 | 5.2
C=CCn1c(SCc2cccc(C#N)c2)nnc1-c1ccccc1O | 11.1
Cc1cccc(N2CCN(C(=O)CN3CCOc4ccccc43)CC2C)c1 (configuration not stated) | 0.0
CC(NC(=O)c1ccco1)C(c1cccs1)N1CCOCC1 (configuration not stated) | 5.3
CCN(CC)C(=O)CN1C(=O)C2(NC(=O)c3ccccc3N2)c2ccccc21 (configuration not stated) | 16.7
Cc1nc(CCNC(=O)COc2ccccc2)cs1 | 3.4
O=C1C2CCCN2C(c2ccc(F)cc2)N1c1cccc(Cl)c1 (configuration not stated) | -26.5
CCOC(=O)C(C)Sc1nnc(-c2c[nH]c3ccccc23)n1C (configuration not stated) | 1.8
NS(=O)(=O)c1ccc(-n2ncc3c(=O)[nH]c(SCC(=O)Nc4nccs4)nc32)cc1 | 5.2
COc1ccc(NC(=O)CSc2nnc(Cn3c(=O)sc4ccccc43)n2C)cc1 | 2.2
COc1ccccc1C1C(C(N)=O)=C(C)Nc2nc(-c3ccccc3Cl)nn21 (configuration not stated) | 16.7
CCOC(=O)N1CCC(NC(=O)c2ccc3c(c2)N(CC)CCS3)CC1 | 5.1
O=C(Cn1cc2c(n1)CCCCC2)NC1CCN(Cc2ccccc2)CC1 | 8.7
COc1ccc(Cc2c3cc(OC)c(OC)cc3cc[n+]2C)cc1OC | 1.8
Cc1noc(C)c1S(=O)(=O)N1CCN(Cc2ccc3c(c2)OCO3)CC1 | 12.9
O=c1oc(-c2ccccc2)cc2ccccc12 | 3.4
Cc1c(O)ccoc1=O | 0.0
COc1cccc(CNS(=O)(=O)c2c(C)nc3sccn3c2=O)c1 | 5.3

Later entries.
SMILES	Hedgehog cleavage
O=C1OC(N2C(=O)CC[C@H]2C(=O)Nc2ccc(F)c(F)c2)c2ccccc21 (some centres not stated)	-1.8
Cc1cccc(NC(=O)C2CCCN(S(=O)(=O)c3cccc4cccnc34)C2)c1 (configuration not stated)	8.3
Cc1ccc2c(c1)N(CC(=O)NCCc1ccccc1)C(=O)c1cccnc1O2	20.8
CC(=O)c1ccc(OCC(O)CN2C(C)CCCC2C)cc1 (configuration not stated)	5.1
COc1ccc(N(CC(=O)Nc2cc(Cl)ccc2OC)C2=NC3CS(=O)(=O)CC3S2)cc1 (configuration not stated)	3.5
CC(NC(=O)C1CCN(c2nnc(N3CCCC3=O)s2)CC1)c1ccccc1 (configuration not stated)	5.2
CCOc1ccc(/C=N/NC(=O)Cc2ccccc2)cc1CN1CC2CC(C1)c1cccc(=O)n1C2 (configuration not stated)	0.0
CC(C)C[C@H](NC(=O)N1CC(=O)Nc2ccccc21)C(=O)N[C@@H](Cc1ccccc1)C(=O)O	4.9
COc1ccc(N2CCN(C(=O)CCC(=O)N3CC(C)Oc4ccccc43)CC2)cc1 (configuration not stated)	10.5
Cc1ccc(-c2nnc(SCC(=O)N3CC(C)CC(C)C3)o2)cc1C (configuration not stated)	20.0
CC1Cc2nc(SCC(=O)N3CCCc4ccccc43)n(C)c(=O)c2S1 (configuration not stated)	0.0
Cc1ccc(NC(=O)N2CCSc3ccccc32)cc1	6.8
Cc1cccc(N2CCN(S(=O)(=O)c3ccc4c(c3)CCN4C(=O)CCC(=O)O)CC2C)c1 (configuration not stated)	5.2
CCOC(=O)c1c(NC(=O)CS(=O)(=O)c2cn(CC)c3ccccc23)sc2c1CCCC2	24.1
Cc1cccc(N(C)S(=O)(=O)c2ccc3c(c2)C(C)(C)C(=O)N3C)c1	2.8
Cc1ccccc1C1c2[nH]c3ccccc3c2C[C@H]2C(=O)N(c3ccccc3C(=O)NCCN3CCOCC3)C(=O)N12 (some centres not stated)	3.5
CCOc1ccc(CC(=O)NCc2ccc3c(c2)cc(C)n3C)cc1	3.8
CCN(c1ccccc1)c1cc(C)nc2nc(C)nn12	-4.2
CCC(C)NC(=O)CS(=O)Cc1nc(-c2cccc(C)c2)oc1C (configuration not stated)	3.6
O=C(CCCCCNC(=O)N1CCn2c1nc1ccccc12)N[C@H](C(=O)O)c1ccccc1	8.2
COc1ccc(OC)c(/C=C2\Oc3cc(OCC(=O)N4CC(O)C[C@H]4C(=O)O)ccc3C2=O)c1 (some centres not stated)	7.0
Cc1ccc(-c2nc(CS(=O)CC(=O)NCc3ccc(Cl)cc3)c(C)o2)cc1 (configuration not stated)	3.4
O=C(O)Cc1cccc2ccccc12	8.9
CC(C)=CCc1c2c(c3occ(-c4ccc(O)cc4)c(=O)c3c1O)C=CC(C)(C)O2	5.3
COc1ccc(CNC(=O)c2cc(S(=O)(=O)N3CCCC3)cn2C)cc1	5.3
Cc1cc2[nH]c(=O)c(=O)[nH]c2cc1S(=O)(=O)N(C)C1CCCCC1	2.0
Cn1cc(S(=O)(=O)N2CCCC2)cc1C(=O)NCc1ccccc1Cl	10.2
COc1cccc(NS(=O)(=O)c2c(C)n(C)c(=O)n(C)c2=O)c1	2.7
COc1ccccc1NC(=O)CCC(=O)N1CC(C)Oc2ccc(C)cc21 (configuration not stated)	5.3
CCOC(=O)N1CCN(C(c2ccc(F)cc2)c2sc3nc(C)nn3c2O)CC1 (configuration not stated)	4.6
CC(C)=CCOc1c2ccoc2c(OCC=C(C)C)c2oc(=O)ccc12	3.4
C=CC1CN(C(=O)OCC(Cl)(Cl)Cl)C2CC3c4ccc(OC)cc4NC3C3CC1C2CO3 (configuration not stated)	10.3
Cc1cccc(Cn2c(SCCN3CCCCC3)nc3c2c(=O)[nH]c(=O)n3C)c1	14.5
CCCCc1cc(=O)oc2cc(C)cc(OCC(=O)N3C[C@H]4C[C@@H](C3)c3cccc(=O)n3C4)c12	9.0
Cn1c(C(=O)N2CCN(c3ncccn3)CC2)cc2c(=O)n(C)c3ccccc3c21	0.0
CC1=C(C(=O)OC(C)C)C(c2cccnc2)n2ncnc2N1 (configuration not stated)	2.7
CC(NC(=O)C1CC1)C(c1cccs1)N1CCN(c2ccccc2)CC1 (configuration not stated)	-1.8
O=C(c1ccc2nc(N3CCOCC3)sc2c1)N1CCC(Cc2ccccc2)CC1	5.1
CC1CCC/C=C/C(=O)c2c(O)cc(O)cc2CC(=O)O1 (configuration not stated)	9.8
Cn1c(=O)ccc2ccccc21	1.7
Cc1coc2c(C)c3oc(=O)c(CCC(=O)N4C[C@H]5C[C@@H](C4)c4cccc(=O)n4C5)c(C)c3cc12	4.9
Cc1ccc(C2c3[nH]c4ccccc4c3C[C@H]3C(=O)N(c4ccccc4C(=O)NCCCN4CCOCC4)C(=O)N23)cc1 (some centres not stated)	-1.7
COC(=O)c1ccccc1NC(=O)c1cc(C2CC2)on1	5.3
CC(C)(O)c1ccc2c(c1)CCC1C(C)(C(=O)O)CCCC21C (configuration not stated)	3.6
CC(=O)c1c(Nc2ccc3c(c2)OCCO3)oc(C)cc1=O	10.7

Not a retest: 2 of the compounds above.
SMILES	Hedgehog cleavage
COC(=O)c1ccccc1NC(=O)c1cc(C2CC2)on1	5.3
CC(C)(O)c1ccc2c(c1)CCC1C(C)(C(=O)O)CCCC21C (configuration not stated)	3.6
